# PV pol inh: poliovirus RdRp elongation inhibitors, primary screen, biochemical, fluorescence polarization, total intensity. % elongation, % (compound at 16.7 µg/mL). 150,000 tested, 0.66% active. AID 588519, 2011. poliovirus polymerase elongation; active compounds read low; in the data active means % elongation below about 90%; further: some results filed as inactive read as strong as hits
# Target sequence (P03300 1749-2209 limits assumed): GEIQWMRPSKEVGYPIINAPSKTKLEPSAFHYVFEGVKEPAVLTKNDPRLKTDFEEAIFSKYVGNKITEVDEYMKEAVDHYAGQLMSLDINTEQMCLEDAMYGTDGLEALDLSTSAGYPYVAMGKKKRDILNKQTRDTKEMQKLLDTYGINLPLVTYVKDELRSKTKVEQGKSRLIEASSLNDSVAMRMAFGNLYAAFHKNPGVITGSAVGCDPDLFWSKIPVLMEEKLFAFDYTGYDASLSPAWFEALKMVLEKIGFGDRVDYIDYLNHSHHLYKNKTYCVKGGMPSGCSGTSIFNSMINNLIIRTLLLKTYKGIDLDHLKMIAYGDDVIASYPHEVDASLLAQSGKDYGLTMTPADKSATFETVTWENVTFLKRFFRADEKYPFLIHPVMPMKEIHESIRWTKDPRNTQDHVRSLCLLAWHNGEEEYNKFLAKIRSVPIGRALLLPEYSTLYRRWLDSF
# PV pol inh intensity: further read-out of PV pol inh, marked with its call; % elongation; measured here: total intensity read-out; formula for this scale not given here;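 total fluorescence in place of polarization; lower means less elongation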
# * marks the source's active call; other numbers are inactive results.
SMILES,PV pol inh,PV pol inh intensity
Cc1c(CNC(C)c2ccccc2)c(C(=O)O)c(C)n1Cc1c(F)cccc1Cl (stereo not given),104,104
CCOC(=O)c1ccc(OCC2c3cc(OC)c(OC)cc3CCN2C(=O)c2ccc(S(=O)(=O)N3CCCC3)cc2)cc1 (stereo not given),106,110
COc1ccc(-n2nc(C(=O)Nc3ccc(C)cn3)c3c4ccccc4n(C)c3c2=O)cc1,109,112
CCOc1ccc(NC(=O)c2cnc3ccccn3c2=O)cc1,104,111
Cc1ccc(C(=O)NCCc2ccc(S(N)(=O)=O)cc2)cc1-n1cnc2cccnc21,107,102
CC(C)CCn1c(=O)c2sccc2n2c(CCCC(=O)NCc3ccc(F)cc3)nnc12,111,97
O=C(CN1CCN(c2ccc(Cl)cc2)CC1)Nc1ccc(Cl)c(C(F)(F)F)c1,110,104
CC1CCCN(Cc2nc3c(c(=O)n(C)c(=O)n3C)n2Cc2ccc(Cl)cc2)C1 (stereo not given),107,113
O=C(CN1C(=O)C2(SCC(=O)N2c2ccc(F)cc2)c2ccccc21)NC1CCCCC1 (stereo not given),106,107
Cc1ccc(-n2c(=O)c3ccc(C(=O)NCc4ccco4)cc3n(CC(=O)Nc3ccc(C)c(F)c3)c2=O)cc1,110,114
COc1ccc(CNC(=O)c2cnn(-c3ccc(OC)cc3)c2C2CCN(C(=O)OC(C)(C)C)CC2)cc1,109,109
Cc1ccc(OCC(=O)Nc2ccc3nc(SCC(=O)N(C)c4ccccc4)sc3c2)cc1,107,111
CSCCC(NS(=O)(=O)c1ccc2c(c1)oc(=O)n2C)C(=O)Nc1ccc(Cl)cc1 (stereo not given),105,108
O=C(CCOc1ccccc1)N(Cc1cccnc1)c1nc2ccc(F)cc2s1,102,103
Cn1c(=O)c2cc(C(=O)N3CCN(c4ccc(Cl)cc4)CC3)sc2c2ccccc21,104,107
O=C(Nc1nnc(S(=O)(=O)N2CCCC2)s1)c1ccccc1Cl,120,114
COc1ccc(-c2nnc(SCC(=O)Nc3cccc(Cl)c3C)nc2-c2ccc(OC)cc2)cc1,110,112
Cc1ccc(CNS(=O)(=O)c2ccc3[nH]c4c(c3c2)CCCCC4)cc1,104,112
Cc1c(C(=O)Nc2ccc(Br)cc2F)oc2ccc(S(=O)(=O)N3CCC4(CC3)OCCO4)cc12,109,108
O=C(NCC1(c2ccccc2)CCCC1)C(=O)Nc1cccc(Br)c1,111,104
O=c1cc(CSc2n[nH]c(-c3ccccc3)n2)[nH]c2ccccc12,106,99
Cc1nn2c(C)c(C(=O)N3CCN(c4ccc(Cl)cc4)CC3)cnc2c1-c1ccc(F)cc1,107,109
CCc1ccc(CNC(=O)c2ccc(-c3nc(CS(=O)(=O)c4ccccc4)c(C)o3)cc2)cc1,113,112
COc1ccc(CCC(=O)NCc2ccc3c(c2)CCN3C(=O)c2ccc(C)cc2)cc1,111,119
COc1cccc(CNC(=O)CN(C)S(=O)(=O)c2ccc3c(c2)c(=O)n(C)c(=O)n3C)c1,102,102
COc1ccc(NC(=O)c2ccc3c(=O)n4nc(Nc5ccccc5C)sc4nc3c2)cc1Cl,109,113
COc1ccccc1NC(=O)N(Cc1nnc2n1CCCCC2)c1ccc(F)cc1,112,118
CCc1nnc(SCC(=O)N(CC)c2ccccc2)c2cc3oc(C)cc3n12,111,115
O=C(Cn1c(=O)c2cccn2c2cccnc21)NCc1cccc(F)c1,106,108
Cc1cccc(N2CCN(c3ccc(NC(=O)c4ccccc4)cc3C(=O)O)CC2C)c1 (stereo not given),105,108
CCc1ccc(CNC(=O)Cn2ccc3cc(S(=O)(=O)N4CCCCCC4)ccc32)cc1,113,112
Cc1ccc(Sc2c(C)nn(C(C)(C)C)c2OC(=O)C(C)(C)C)cc1,108,108
COc1ccccc1Nc1sc(C(=O)c2ccc(F)cc2)c(N)c1S(=O)(=O)c1ccc(C)cc1,112,119
CCc1ccc(S(=O)(=O)c2cn(CC(=O)Nc3ccc(F)c(Cl)c3)c3ccccc3c2=O)cc1,116,113
COc1ccccc1CNc1cc(-c2ccccc2)nc2nncn12,103,107
COc1ccc(OC(=O)c2cn(-c3cccc(OC)c3)c(=O)c3ccccc23)cc1,115,113
Cc1noc(-c2ccc(-c3noc(-c4ccc(Cl)cc4)n3)cc2)n1,104,106
CCc1ccc(N(CC)C(=O)Cn2nc(Cc3cccnc3)c3ccccc3c2=O)cc1,107,107
CCOC(=O)c1c(NC(=O)c2ccc(S(=O)(=O)N3CCC(C)CC3)cc2)sc2c1CCN(CC)C2,102,103
CC(=O)c1ccc(NC(=O)CSc2nccn2C2CCCC2)cc1,111,114
O=C(NCc1ccc(F)cc1)c1ccc(Cn2c(SCc3ccc(F)cc3)nc3cccnc32)cc1,109,112
COc1cccc(NC(=O)c2sc3nc(C)c(C(=O)Nc4ccc(C)cc4C)c(-c4sccc4C)c3c2N)c1,106,109
C[C@H](NC(=O)OC(C)(C)C)c1nnc(SCc2ccc(Cl)cc2Cl)o1,105,107
CC(=O)Nc1ccc(NS(=O)(=O)c2cc(Br)cc3c2N(C(=O)C2CC2)CC3)cc1,106,109
Cc1ccc(Cn2nnc3c(=O)[nH]c(C4CCN(C(=O)Cc5ccccc5F)CC4)nc32)cc1,101,106

# Part of the list above, with values under each structure:
# Order of values: PV pol inh, PV pol inh intensity
CCOC(=O)c1c(NC(=O)c2ccc(S(=O)(=O)N3CCC(C)CC3)cc2)sc2c1CCN(CC)C2
 : 102, 103
C[C@H](NC(=O)OC(C)(C)C)c1nnc(SCc2ccc(Cl)cc2Cl)o1
 : 105, 107

# Copied from above for reference:
SMILES,PV pol inh,PV pol inh intensity
CCc1ccc(S(=O)(=O)c2cn(CC(=O)Nc3ccc(F)c(Cl)c3)c3ccccc3c2=O)cc1,116,113
COc1ccccc1CNc1cc(-c2ccccc2)nc2nncn12,103,107
COc1ccc(OC(=O)c2cn(-c3cccc(OC)c3)c(=O)c3ccccc23)cc1,115,113
Cc1noc(-c2ccc(-c3noc(-c4ccc(Cl)cc4)n3)cc2)n1,104,106
CCc1ccc(N(CC)C(=O)Cn2nc(Cc3cccnc3)c3ccccc3c2=O)cc1,107,107
CCOC(=O)c1c(NC(=O)c2ccc(S(=O)(=O)N3CCC(C)CC3)cc2)sc2c1CCN(CC)C2,102,103
CC(=O)c1ccc(NC(=O)CSc2nccn2C2CCCC2)cc1,111,114

# (next part)
SMILES,PV pol inh,PV pol inh intensity
CCc1c(C)sc2c1CCN(C(=O)Nc1ccccc1C(=O)OC)C2c1ccc(F)cc1 (stereo not given),110,115
CCOc1cc2sc(N3CCC(C(=O)Nc4ccc(C)cc4)CC3)nc2cc1Br,107,109
Cc1ccc(Oc2c(C(F)(F)F)oc3cc(OCC(=O)NC4CCCCC4)ccc3c2=O)cc1,108,109
Cc1ccc(-n2ncc3c(Nc4ccc(Oc5ccccc5)cc4)ncnc32)c(C)c1,106,112
CN(C)CCNC(=O)c1ccc2nc(Cc3ccccc3)oc2c1,101,106
CCOCCCn1c(=N)c(C(=O)NCc2cccnc2)cc2c(=O)n3ccccc3nc21,113,116
Cc1nc2ccc(S(=O)(=O)NC(CC(C)C)C(=O)NCc3ccc(Cl)cc3)cc2s1 (stereo not given),106,109
O=C(Nc1cccc(Cl)c1)c1ccc2nc(CCc3ccccc3)oc2c1,106,113
Cc1ccc(C)c(NC(=O)CCS(=O)(=O)c2cccc3nsnc23)c1,107,107
CCC1CCCCN1CCCNC(=O)c1cc2c(Cl)nc3ccccc3c2s1 (stereo not given),87,98
Cc1ccc(-c2nc3cc(Cl)ccc3o2)cc1NC(=O)c1cc([N+](=O)[O-])ccc1N1CCOCC1,105,109
CCC(=O)N1CCc2cc(Br)cc(S(=O)(=O)CCC(=O)N3CCN(c4ccc(OC)cc4)CC3)c21,100,108
Cc1ccc(-c2cc(C(=O)NCCc3ccccc3)c3ccccc3n2)cc1C,108,104
COc1cccc(CN(C(=O)c2oc3cc(C)ccc3c2C)C2CCS(=O)(=O)C2)c1 (stereo not given),111,115
CCc1ccccc1NC(=O)Cn1c(=O)n(Cc2ccco2)c(=O)c2sc3ccccc3c21,100,107
CCOc1ccc2nc(N3CCCC(C(=O)Nc4ccc(OC)cc4)C3)sc2c1 (stereo not given),110,114
CCc1ccc(CNC(=O)Cn2nc(C)c3nn(-c4ccc(Cl)cc4)c(C)c3c2=O)cc1,109,112
CCn1cc(C(=O)OCC(=O)Nc2cc(Cl)ccc2C)c(=O)c2ccc(C)nc21,105,109
COc1cccc(CNC(=O)CSc2ncc3c(n2)-c2cc(Cl)ccc2N(C)S3(=O)=O)c1,112,120
CCC(C(=O)Nc1cc(OC)ccc1OC)n1c(=O)c(C(F)(F)F)nc2ccccc21 (stereo not given),109,112
CCc1ccc(NC(=O)CSc2nc(=O)n(Cc3ccccn3)c3c2CCC3)cc1,109,106
Cn1cnc(S(=O)(=O)N2CCC(C(=O)N3CCN(c4cccc(C(F)(F)F)c4)CC3)CC2)c1,108,96
CCOc1ccc(C(=O)Nc2ccc3nc(SCCOc4ccccc4)sc3c2)cc1,107,112
O=C(/C=C/c1ccccc1)Nc1nc(-c2cccs2)ns1,103,109
CCc1ccc(N2C(=O)N(CC(=O)C(C)(C)C)c3ccccc3S2(=O)=O)cc1,110,109
COc1ccc(C2=CC(c3cccc(C)c3)n3nnnc3N2)cc1 (stereo not given),104,127
CCC(=O)N1CCCc2cc(S(=O)(=O)N3CCC(C(=O)Nc4ccc(C#N)cc4)CC3)ccc21,105,107
CN(C)c1ccc(CNC(=O)C2CCN(S(=O)(=O)c3cn(C)cn3)CC2)cc1,111,111
Cc1ccc2c(CNCc3cccs3)c(C(=O)O)n(Cc3ccc(F)cc3)c2c1,104,105
CCCCC(CC)CNC(=O)CCCc1nnc2n(CCC)c(=O)c3sccc3n12 (stereo not given),108,111
Cc1ccc(-n2ccn(CC(=O)c3ccc(F)cc3)c(=O)c2=O)cc1C,102,106
COc1ccc(NC(=O)CC2C(=O)N(c3ccc(C)cc3)C(=O)N2Cc2cccnc2)cc1 (stereo not given),98,104
COc1cccc(N2CC(NC(=O)C(c3ccccc3)c3ccccc3)CC2=O)c1 (stereo not given),106,112
Cc1cccc(-c2nnn3c2nc(NCc2ccccc2)c2ccccc23)c1,106,110
COCCNC(=O)c1cnc2sc(N3CCCCC3)nn2c1=O,100,108
CCOC(=O)c1c(NC(=O)COc2ccc(C(C)(C)C)cc2)sc2c1CCCC2,104,111
Nc1nonc1-c1nc2ccccc2n1Cc1ccc(Br)cc1,113,111
COc1ccc(-n2ccn(Cc3ccccc3Cl)c(=O)c2=O)cc1OC,112,112
COc1ccc2oc(=O)c(C(=O)N3CCN(c4cc(Cl)ccc4Cl)CC3)cc2c1,104,109
CCCCN(CC)C(=O)c1cc2c(=O)n3cccc(C)c3nc2s1,99,103
COc1ccc(NC(=O)c2oc3ccccc3c2NC(=O)c2cc(OC)c(OC)c(OC)c2)cc1,99,97
COc1cccc(CN2C(=O)CN(C3CCCCC3)C(=O)C2c2ccc(OC)c(OC)c2)c1 (stereo not given),100,104
CCOc1ccc(OCC)c(NC(=O)c2cc(S(=O)(=O)N3CCCC3)cn2C)c1,104,107
COc1ccc(-c2ccc3c(N)c(C(=O)Nc4ccc(C(F)(F)F)cc4)sc3n2)cc1OC,101,102
Cc1cc(C)n(-c2nc3ccccc3nc2N2CCN(c3cccc(C)c3C)CC2)n1,102,100

# Looked up one by one from the list above (2):
SMILES,PV pol inh,PV pol inh intensity
Nc1nonc1-c1nc2ccccc2n1Cc1ccc(Br)cc1,113,111
COc1cccc(CN2C(=O)CN(C3CCCCC3)C(=O)C2c2ccc(OC)c(OC)c2)c1 (stereo not given),100,104

# (continued)
SMILES,PV pol inh,PV pol inh intensity
COc1ccccc1CNC(=O)c1cc(-c2ccccc2)n[nH]1,116,113
CCOc1ccccc1NC(=O)Cn1c(=O)n(Cc2ccccc2)c(=O)c2cccnc21,106,102
Cc1ccc2c(c1)c(=O)c(C(=O)c1ccccc1)cn2Cc1ccccc1F,107,107
O=c1c(S(=O)(=O)c2cccc(Cl)c2)cn(Cc2ccccc2)c2cc(N3CCOCC3)c(F)cc12,107,106
CCOC(=O)c1cc(-c2ccccc2)n(CC(=O)Nc2cc(Cl)c(OC)cc2OC)c1C,111,110
COc1ccc(CNC(=O)c2c3c(nc4ccccc24)C(=O)N(C2CCCCC2)C3)cc1,113,111
O=C(Nc1nc2nc(-c3ccccc3)cc(=O)n2[nH]1)c1ccc(Cl)cc1,101,105
CCOC(=O)c1c(NC(=O)c2nc(SC(C)C)ncc2Cl)sc2c1CCCC2,114,117
CCN(CC)C(=O)Cn1c(SCC(=O)Nc2ccc(F)cc2)nc2ccccc21,106,108
Cc1cc(C)cc(NC(=O)CCS(=O)(=O)c2cc3c4c(c2)CCN4C(=O)CC3)c1,114,106
COc1ccccc1C1CC(=O)N(c2cccc(C(F)(F)F)c2)C2=C1C(=O)OC2 (stereo not given),103,104
CCS(=O)(=O)N1CCc2cc(C(=O)Nc3ccc(C(=O)OC)cc3)ccc21,112,113
COc1cccc(NC(=O)/C(C#N)=C/c2c(C)n(Cc3ccc(Cl)cc3)c3ccccc23)c1,114,122
COc1ccc(CCNC(=O)c2ccc3c(c2)N(Cc2cccc(C)c2)C(=O)c2ccccc2S3(=O)=O)cc1OC,82*,60*
O=C(Nc1cccc2cccnc12)c1ccc(F)cc1,110,108
COc1cccc(C(=O)Nc2ccc3c(c2)CCCN3C(=O)c2cccs2)c1OC,108,110
CC(C)NC(=O)CN1C(=O)CCn2nc(-c3cn(C)c4ccccc34)cc21,111,112
COc1ccc(NC(=O)N2CCN3CCCCC3C2)cc1OC (stereo not given),103,111
CCCSc1ncc(Cl)c(C(=O)Nc2ccc(S(=O)(=O)N(C)c3ccccc3)cc2)n1,112,114
CCS(=O)(=O)N1CCC(C(=O)NCCC(C)C)CC1,112,117

# Only part of the results is shown (hit frequency here may not be typical).
